Screens from PubChem.
Mtb growth: Mycobacterium tuberculosis H37Rv growth inhibition, cell based, confirmatory dose response (AID 1949) | 100,000 tested, 1.6% active | most inactive calls were filed without a number and no value below 0 was filed | inhibition, % at 10 µg/mL, or IC50 in µg/mL where a hit was titrated;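 active means confirmed in a dose series; inconclusive means about 50% or more but not retested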;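 further: bacteria grown 7 days with compound before Alamar blue readout; 0% = untreated bacteria and 100% = reference antibiotic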
Numbers without * were called inactive; i = inactive; ? = inconclusive.

SMILES	Mtb growth
O=C1CCC(=O)N1c1ccc(CSc2nnnn2C2CCCCC2)cc1	i
CC1=C(C(=O)N2CCOCC2)C(c2ccc(Br)cc2)C2=C(CC(C)(C)CC2=O)N1 (stereo unspecified)	i
Nc1ncnc(N2CCCCCC2)c1[N+](=O)[O-]	i
Cc1c(C(=O)NC(=S)Nc2ccc3c4c(cccc24)CC3)cccc1[N+](=O)[O-]	i
O=C(c1ccncc1)N(C1CCCCC1)C1CCCCC1	i
Cc1cccc(NC(=O)c2ccc(NC(=O)C(c3ccccc3)c3ccccc3)cc2)c1	8.4%
O=C(NCc1ccco1)C1OCCc2ccccc21 (stereo unspecified)	i
O=C1CC(NCc2ccco2)C(=O)NN1 (stereo unspecified)	i
CCOC(=O)c1c(-c2ccccc2Cl)csc1NC(=O)c1ccc([N+](=O)[O-])c(C)c1	0.2%
CCc1ccc(OCc2nc(-c3ccc([N+](=O)[O-])cc3)no2)c(Br)c1	i
Fc1ccc(-n2c(-c3ccc(Cl)cc3)n[nH]c2=S)cc1	i
CC1CCN(C=C(S(=O)(=O)c2ccccc2)S(=O)(=O)c2ccccc2)CC1	i
COc1ccc(-c2cc(C(F)F)n3ncc(C(=O)Nc4ccc5c(c4)CCC5)c3n2)cc1	2.6%
CCc1cccc(NC(=O)Cc2ccc([N+](=O)[O-])cc2)c1	i
COc1ccccc1NC(=O)CCN1C(=O)c2ccccc2S1(=O)=O	i
Clc1ccc(OCCCCN2CCCCCC2)cc1	i
O=C(Cc1ccccc1Cl)NCc1ccco1	i
CCOc1ccc(N(C(=O)c2ccccc2)C2C=CS(=O)(=O)C2)cc1 (stereo unspecified)	i
O=C(NC(=S)Nc1ccc(OCc2ccccc2)cc1)c1cccnc1	19.2%
Cc1ccc(SCc2cc(=O)[nH]c(N3CCCCC3)n2)cc1	i
Cc1c(C(=O)Nc2ccccc2)sc2ncn(CC(=O)N3CCCCCC3)c(=O)c12	i
C=CCn1c(=N)n(CCOc2cccc(C)c2)c2ccccc21	2.2%
O=C1c2ccccc2S(=O)(=O)N1c1ccc(Cl)cc1Cl	i
CCOc1c(Br)cc(CNC(C)(C)CO)cc1OC	1.1%
COc1cccc(NC(=S)Nc2ccc(S(N)(=O)=O)cc2)c1	1.2%
COc1cccc(-c2nc(=S)c3c(o2)CCCC3)c1	i
COc1cc(C(C)=O)ccc1OC(=O)c1cc2cccc(OC)c2oc1=O	3.8%
COc1cc(C(=O)Nc2cccc3cccnc23)cc(OC)c1OC	i
O=c1[nH]c2sc3c(c2c2ncnn12)CCCC3	i
CC(NC(=O)CN(Cc1ccccc1Cl)S(=O)(=O)c1ccc(Cl)cc1)c1ccccc1 (stereo unspecified)	i
CC(=O)c1cccc(NC(=O)NC2CCCc3ccccc32)c1 (stereo unspecified)	0.6%
Cc1cc(I)cc(C)c1NC(=O)C1CC(O)CN1C(=O)Oc1ccccc1 (stereo unspecified)	i
COc1cc2c(cc1OC)C(c1ccc(Cl)cc1Cl)CC(=O)N2 (stereo unspecified)	3.8%
N#Cc1c(NC(=O)CSc2ccc(Cl)cc2)sc2c1CCCC2	i
CCOc1ccc(OCc2ccc(C(=O)Nc3ccc(OC)c(OC)c3)cc2)cc1	i
O=C(CC1Nc2ccccc2NC1=O)c1cccs1 (stereo unspecified)	i
COC(=O)c1sc(NC(=O)c2c(-c3c(F)cccc3Cl)noc2C)nc1C	i
Cc1ccccc1COc1ccccc1C#N	i
COc1ccc(N2CCN(S(=O)(=O)c3ccc4c(c3)Cc3ccccc3-4)CC2)cc1	2.1%
CCCCC(=O)Nc1cc(OC)c(Cl)cc1OC	i
CCn1c(CNC(=O)c2ccco2)nnc1SCC(=O)Nc1cc(C(F)(F)F)ccc1Cl	i
CC(C)(C)c1ccc(C(=O)Nc2ccc(Br)cc2)cc1	i
Cc1cccc(C(=O)Nc2nnc(SCC(=O)N3CCc4ccccc43)s2)c1	i
CS(=O)(=O)n1nc(-c2ccc(Cl)cc2)nc1N	i
COc1ccc(N(CC(=O)Nc2ccccc2C(=O)NC(C)C)S(C)(=O)=O)cc1	i
O=C(Nc1ccc2nc(-c3ccco3)[nH]c2c1)c1cccs1	i
Cc1ccc(C(=O)Oc2ccc(NS(=O)(=O)c3cc(C)ccc3C)cc2)cc1	i
CCOc1cccc2ccc(C=O)nc12	i
NC(=O)CSc1ccc(Br)cc1	?
Cc1ccc(C(=O)Nc2cccc(-c3nc4ccccc4o3)c2)cc1	i
O=C(Nc1nnc(C2CCCO2)s1)C(Cl)Cl (stereo unspecified)	5.7%
CCN(C(=S)NC(=O)c1ccc(C(C)(C)C)cc1)c1ccccc1	i
CC(=O)c1ccc(NC(=O)CSc2nnc(COc3ccccc3)n2-c2ccccc2)cc1	i
CSc1ccccc1NC(=O)CN(c1cccc(C)c1)S(C)(=O)=O	i
CCN(CC)CCN1C(=O)C(=O)/C(=C(/O)c2cnn(-c3ccccc3)c2C)C1c1cccc(F)c1 (stereo unspecified)	i
COc1ccc(-c2nc(SCC(=O)Nc3ccc(Br)c(C)c3C)n[nH]2)cc1	1.4%
Cc1cc(C)c(CSc2nnc(-c3ccccc3O)n2C)c(C)c1	i
COc1ccc(NC(=S)Nc2ccc(S(=O)(=O)N3CCOCC3)cc2)cn1	i
CC(SCc1ccccc1)C(=O)Nc1ccc(F)c(F)c1 (stereo unspecified)	i
Cc1ccc(C(=O)O)cc1NC(=O)c1cccc(NC(=O)c2ccco2)c1	i
Additional results follow.
SMILES	Mtb growth
COc1ccc(CN(C)CCO)cc1OC	2.5%
CN(CC#CCC(O)(c1ccccc1)c1ccccc1)Cc1ccccc1	?
COc1ccc(CCNC(=O)c2ccccc2SC)cc1	0.0%
CCOC(=O)c1ccc(NC(=O)C2CC(=O)N(c3ccccc3F)C2)cc1 (stereo unspecified)	i
Cc1cccc2sc(NS(C)(=O)=O)nc12	i
CCCc1cc(C(=O)OC)c(NC(=O)C2CC=CCC2C(=O)O)s1 (stereo unspecified)	i
CN(CC(=O)O)S(=O)(=O)c1ccc(F)c2ccccc12	0.9%
CCN(CC)c1ccc(NC(=O)c2cccs2)c(C)c1	i
C=CCc1cc(OC)ccc1OCCCN1CCOCC1	i
COC(=O)c1ccc(NC(=O)CSc2nc3c(c(=O)n(C)c(=O)n3C)n2Cc2ccccc2)cc1	i
CSC1=C(C#N)C(c2ccccc2F)CC(=O)N1 (stereo unspecified)	i
O=C(CN(c1ccc(F)cc1)S(=O)(=O)c1ccc2c(c1)OCCO2)Nc1ccccc1C(=O)N1CCCC1	i
N#CCNC(=O)c1ccccc1I	0.3%
Nn1c(=O)[nH]c2sc3c(c2c1=O)CCCC3	i
CCN(CC)c1ccc(NC(=S)NC(=O)c2ccc(I)cc2)cc1	i
CC1CCCN(CCC(=O)c2ccc(Br)cc2)C1 (stereo unspecified)	2.8µg/mL*
Cc1nc(-c2ccc(C(=O)Nc3cccc4ccccc34)cc2)cs1	i
Cc1ccc(CN2C(=O)C(=O)c3cc(Br)ccc32)c(C)c1	8.44µg/mL*
NC(=O)c1c(NC(=O)CCCc2ccccc2)sc2c1CCCC2	i
CC(C)N(C(=O)Cc1cccs1)C(C)C	i
O=C(CNS(=O)(=O)c1ccc(Cl)cc1)N1CCN(C(c2ccccc2)c2ccccc2)CC1	7.3%
CCc1cccc(CC)c1NC(=O)CN(c1cc(OC)ccc1OC)S(=O)(=O)c1ccc(OC)c(OC)c1	i
Cc1ccc(N(CC(=O)Nc2cccc(N(C)S(C)(=O)=O)c2)S(=O)(=O)c2ccc(F)cc2)cc1	i
COc1cc(C#CC#CCN2CCOCC2)ccc1OC(=O)c1ccccc1	33.1%
CCN(CC)S(=O)(=O)c1ccc(NC(=O)c2ccccc2C)c(C)c1	i
O=[N+]([O-])c1cccc(N(CC(O)CN2CCCCC2)S(=O)(=O)c2ccccc2)c1 (stereo unspecified)	4.4%
CC(C)C(=O)Nc1cccc(NC(=O)c2cccs2)c1	i
O=C(CSCc1ccccc1)Nc1ccc(S(=O)(=O)Nc2nccs2)cc1	i
COc1ccc(C(=O)Nc2ccc3c(c2)C(=O)N(C)C3=O)c(OC)c1	1.1%
COc1ccccc1NC(=O)C1=C(C)NC(SC)=C(C#N)C1c1ccccc1F (stereo unspecified)	2.5%
CCOC(=O)C1=C(SCC(=O)Nc2ccccc2)NC(=O)C(C#N)C12CCCCC2 (stereo unspecified)	i
O=C(Nc1ccccc1N1CCCC1)c1ccc2c(c1)OCO2	1.9%
O=C(NCCOc1ccccc1)C(=O)Nc1ccccc1	i
COC(=O)Cc1c(C)c2ccc(OCc3ccc(Br)cc3F)cc2oc1=O	i
CC1CCCCN1C(=O)c1ccccc1NC(=O)c1cc2ccccc2o1 (stereo unspecified)	i
Cc1cc(OCC(=O)Nc2ccc(CN3CCOCC3)cc2)ccc1Cl	i
O=C(Oc1ccc(-c2nnco2)cc1)N1CCCCC1	5.1%
O=Cc1c(-c2ccccc2)cc2ccccn12	i
CC1CC(C)CN(CCOCCSc2ccc(Cl)cc2)C1 (stereo unspecified)	i
Cc1ccc(NC(=O)c2ccc(OC(=O)COc3ccc(Cl)cc3C)cc2)cc1	i
CCOCCCNC(=O)CCCOc1ccccc1	1.4%
O=C(NC1CCCCC1)c1cccc(Cn2cc(Cl)cn2)c1	0.1%
CNC(=S)Nc1ccc(S(N)(=O)=O)cc1	i
NC(=O)CCNc1ccc([N+](=O)[O-])cc1Cl	i
CCOc1cc(C(=O)Nc2ccc(Nc3ccccc3)cc2)cc(OCC)c1OCC	3.1%
CCN(CC)c1ccc(-n2nc3cc(C)c(NC(=S)NC(=O)c4ccccc4F)cc3n2)cc1	8.3%
Cc1nnc(SCC(=O)Nc2sc3c(c2C#N)CCC(C(C)(C)C)C3)s1 (stereo unspecified)	24.9%
CCC(C)NCCCCOc1ccc(C)cc1Cl (stereo unspecified)	i
Cc1cc(C)cc(C(=O)Nc2ccc(Br)cc2F)c1	i
O=C(Cn1c(C(F)(F)F)nc2ccccc21)NCCN1CCOCC1	1.4%
N#Cc1ccc(C(=O)Nc2ccc(Cl)c(-c3nc4ccccc4s3)c2)c(F)c1	i
COc1cc(CN2CCCC(C)C2)cc(Br)c1O (stereo unspecified)	13.8%
Cc1ccc(S(=O)(=O)N(c2ccccc2N2CCOCC2)C(F)F)cc1	7.6%
Cc1cccc(/C(N)=N/OC(=O)COc2ccc(Cl)cc2C)c1	i
CCOC(=O)Nc1ccc(S(N)(=O)=O)cc1	i
CCOc1cc([N+](=O)[O-])c(C=O)cc1OC	i
CCOC(=O)c1cc(Cc2ccccc2)sc1NC(=S)N1CCN(S(C)(=O)=O)CC1	1.1%
Cc1cc(C)c2c(c1)C(c1c[nH]c3ccccc13)(c1c[nH]c3ccccc13)C(=O)N2	38.0%
COC(=O)c1cccc(NC(=O)c2sc3cc(F)ccc3c2Cl)c1	i
CCOc1ccc(OCCNCCOC)cc1	i

Arranged by SMILES length (falling): part of the list above
SMILES	Mtb growth
COc1ccc(N2CCN(S(=O)(=O)c3ccc4c(c3)Cc3ccccc3-4)CC2)cc1	2.1%
Cc1cccc(NC(=O)c2ccc(NC(=O)C(c3ccccc3)c3ccccc3)cc2)c1	8.4%
COc1ccc(N(CC(=O)Nc2ccccc2C(=O)NC(C)C)S(C)(=O)=O)cc1	i
Cc1ccc(NC(=O)c2ccc(OC(=O)COc3ccc(Cl)cc3C)cc2)cc1	i
CC1CCCCN1C(=O)c1ccccc1NC(=O)c1cc2ccccc2o1 (stereo unspecified)	i
O=C1c2ccccc2S(=O)(=O)N1c1ccc(Cl)cc1Cl	i
O=C1CC(NCc2ccco2)C(=O)NN1 (stereo unspecified)	i
COc1ccc(CN(C)CCO)cc1OC	2.5%

(continued)
SMILES	Mtb growth
O=S(=O)(NCc1nc2ccccc2[nH]1)c1ccc(Cl)cc1	2.7%
CCOC(=O)CCc1c(C)c2cc(Cl)c(OCc3ccccc3Br)cc2oc1=O	i
CC(=O)Nc1ccc(S(=O)(=O)NCCNc2ccc(C(F)(F)F)cc2[N+](=O)[O-])cc1	5.5%
COc1ccc(OC)c(NC(=O)C(F)(F)F)c1	i
CCCCc1ccc2nc(NC(=O)c3cccs3)sc2c1	6.52µg/mL*
CC(=O)Nc1nnc(SCC(=O)NC2CCCCC2)s1	i
O=C(NS(=O)(=O)c1ccccc1)c1ccccc1O	i
COC(=O)c1ccc(C)c(NC(=S)NCCc2ccccc2)c1	i
COc1cc(/C=N\Nc2nnc(C)c(=O)[nH]2)cc([N+](=O)[O-])c1O	8.2%
CC(C)CNS(=O)(=O)c1ccc(CCC(=O)Nc2ccc(I)cc2)cc1	i
Cc1[nH]nc2c1C1(C(=O)N(C)c3ccc(Br)cc31)C(C#N)=C(N)O2 (stereo unspecified)	i
COc1cc(C)c(S(=O)(=O)N2CCN(c3ccc(Cl)c(Cl)c3)CC2)cc1C	0.6%
COc1ccc(CCNC(=O)Cc2cccs2)cc1	i
S=C(c1cccc(Oc2ccccc2)c1)N1CCOCC1	3.5%
c1ccc(-c2noc(-c3ccc4c(c3)OCO4)n2)nc1	3.6%
COc1ccc(NC(=S)Nc2c(C)nn(Cc3c(F)c(F)c(F)c(F)c3F)c2C)cc1OC	i
CC1(C(=O)NCc2cccnc2)CC1(Cl)Cl (stereo unspecified)	i
CC(=O)c1c(N2CCN(CCO)CC2)nc(=S)n(-c2ccccc2)c1C	1.5%
N#CC1=C(N)Oc2cc(O)ccc2C1c1cccnc1 (stereo unspecified)	i
CCCCOc1ccc(C(=O)Nc2ccc(OCC(=O)N3CCOCC3)cc2)cc1	i

Pulled by structure from the list above (10):
SMILES	Mtb growth
CCCCC(=O)Nc1cc(OC)c(Cl)cc1OC	i
NC(=O)CSc1ccc(Br)cc1	?
CC(=O)Nc1nnc(SCC(=O)NC2CCCCC2)s1	i
CC1CC(C)CN(CCOCCSc2ccc(Cl)cc2)C1 (stereo unspecified)	i
O=C(CNS(=O)(=O)c1ccc(Cl)cc1)N1CCN(C(c2ccccc2)c2ccccc2)CC1	7.3%
N#CCNC(=O)c1ccccc1I	0.3%
O=C(Cn1c(C(F)(F)F)nc2ccccc21)NCCN1CCOCC1	1.4%
CC(=O)c1cccc(NC(=O)NC2CCCc3ccccc32)c1 (stereo unspecified)	0.6%
Cc1ccc(C(=O)Oc2ccc(NS(=O)(=O)c3cc(C)ccc3C)cc2)cc1	i
COc1cc(C(=O)Nc2cccc3cccnc23)cc(OC)c1OC	i

Only part of the results is shown, so the mix of outcomes need not match the whole.
